Source: PubChem BioAssay
PINK1 modulator – changes PINK1 expression | PINK1 immunofluorescence, high-content cytometry, 24 h | hit rate 0.2% among 410,000 | Potency, µM (titrated, usually from 76.6 µM), inactives show at the highest dose activation (PINK1 increase), hits mostly activators | AID 624263; active = well fitted activation curve with a large enough effect; inconclusive = small, poorly fitted or top-dose-only effect; inactive = flat fitted curve, though single readings scatter; cell line not stated here;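 also: potency is read from the fitted curve at half-maximal effect; % of control where 0% means no effect; nearly all actives have a fitted effect of over 65% in size; a mitochondrial uncoupler was the plate control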
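PINK1 protein level read as immunofluorescence by microplate cytometer in a fixed, stained stable cell line after 24 h exposure to five compound concentrations, with CCCP as control.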
D2 ag – agonists of human D2 dopamine receptor (beta-arrestin). P14416. DiscoveRx PathHunter D2 beta-arrestin, luminescence, 90 min; 100% = 57 uM dopamine signal. activation, % (no concentration beside the values). hit rate 0.084% among 360,000. AID 624465; in the data active = activation above about 40%; inconclusive = about 15% to 40%; inactive = below about 15%; also: compound concentration not given in the record; the text of the record calls up to 30% inactive
Target sequence (P14416 whole entry, looked up): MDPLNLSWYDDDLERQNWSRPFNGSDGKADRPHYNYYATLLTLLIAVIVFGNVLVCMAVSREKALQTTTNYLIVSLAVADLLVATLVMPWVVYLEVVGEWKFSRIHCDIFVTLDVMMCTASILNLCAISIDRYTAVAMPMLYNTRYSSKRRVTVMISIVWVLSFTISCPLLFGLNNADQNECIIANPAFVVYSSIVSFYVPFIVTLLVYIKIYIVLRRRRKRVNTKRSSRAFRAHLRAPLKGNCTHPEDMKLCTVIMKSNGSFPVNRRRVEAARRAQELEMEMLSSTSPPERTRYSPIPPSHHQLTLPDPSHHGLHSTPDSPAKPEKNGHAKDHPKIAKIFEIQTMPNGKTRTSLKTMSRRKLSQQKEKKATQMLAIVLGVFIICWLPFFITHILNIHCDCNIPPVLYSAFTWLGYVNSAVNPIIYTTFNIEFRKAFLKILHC
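Agonist mode: compounds alone added to overnight-plated D2 PathHunter cells for 90 min at 37 C, with 57 uM final dopamine (EC100) defining full response. Beta-arrestin recruitment detected by chemiluminescent reagent, read after 1 h at ambient temperature.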
TRPML1 inh – human mucolipin-1 channel inhibition | Q9GZU1 | TRPML1-inducible cells, Ca2+ dye fluorescence, FDSS; stronger effect = lower value; inhibition of EC80 agonist-evoked calcium signal | hit rate 0.02% among 390,000 | activity change, negative = inhibition, % (test concentration not listed); in the data active means activity change below about -50%; inconclusive means about -30% to -50%; inactive means above about -30%;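 also: stimulus is agonist 54-4 at its EC80 concentration; % is scaled to controls: 0 for no effect and ±100 for the full control effect; compound concentration not given in the record; the text of the record puts the active cut at -80%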
Target sequence (Q9GZU1 whole entry, looked up): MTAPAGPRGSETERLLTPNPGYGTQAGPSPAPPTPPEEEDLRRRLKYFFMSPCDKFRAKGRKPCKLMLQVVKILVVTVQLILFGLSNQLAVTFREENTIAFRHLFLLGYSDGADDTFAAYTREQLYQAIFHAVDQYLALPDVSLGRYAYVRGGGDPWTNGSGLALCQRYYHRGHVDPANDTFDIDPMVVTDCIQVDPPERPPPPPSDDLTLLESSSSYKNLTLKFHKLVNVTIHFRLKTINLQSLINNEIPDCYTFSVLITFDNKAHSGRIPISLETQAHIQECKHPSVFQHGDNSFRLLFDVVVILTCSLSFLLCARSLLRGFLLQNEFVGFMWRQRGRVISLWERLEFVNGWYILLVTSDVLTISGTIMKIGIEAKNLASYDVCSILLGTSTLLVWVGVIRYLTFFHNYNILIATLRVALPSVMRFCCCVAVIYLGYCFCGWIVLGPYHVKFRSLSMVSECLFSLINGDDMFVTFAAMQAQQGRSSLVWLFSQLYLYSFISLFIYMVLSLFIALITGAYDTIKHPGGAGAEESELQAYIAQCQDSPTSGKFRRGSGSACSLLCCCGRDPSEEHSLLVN
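TRPML1-DL cells, Tet-induced overnight (~16 h, 37 °C) at 1,500 cells/well, were loaded with Ca8 no-wash dye plus quencher for 45-90 min at room temperature. Compounds were pinned during FDSS kinetic reading; agonist 54-4 at EC80 (4 uM final) then added.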
TRPML1 agonist – agonists of human TRPML1 channel; activation, % (test concentration not listed); Q9GZU1; TRPML1-expressing cells, Ca2+ dye fluorescence, FDSS; host cell line not named in the record; reference of the full effect not given here; hit rate 0.12% among 410,000; in the data active = activation above about 50%; inconclusive = about 30% to 50%; inactive = below about 30%; also: 0% is about no effect; the text of the record puts the active cut at 80%
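In this qHTS format, compounds were pin-transferred onto Ca8-dye-loaded TRPML1-DL cells induced with Tet overnight, and intracellular Ca2+ fluorescence was recorded kinetically for 110 s after a 10 s baseline. A subsequent 4uM final 54-4 (EC80) addition followed by a second 110 s read served as the antagonist phase.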
CtBP-E1A blk – CtBP/E1A binding inhibition; AlphaScreen GST-E1A/His-CtBP binding, 1536-well; stronger effect = lower value; control for the full effect not named in the record; activity change, % (no concentration beside the values); hit rate 0.49% among 340,000; AID 651724; in the data active means activity change below about -65%; inconclusive means about -30% to -65%; inactive means above about -30%; also: % is scaled to controls: 0 for no effect and ±100 for the full control effect; compound concentration not given in the record
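Homogeneous bead-based format: GST-tagged E1A captured on glutathione donor beads, His-tagged CtBP on nickel acceptor beads; compounds precede bead addition by 2 h at 37 °C.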
Six1-Eya2 inh – Six1/Eya2 interaction inhibition; Q15475+O00167; AlphaScreen GST-Six1/His-Eya2 binding, biochemical; stronger effect = lower value; control for the full effect not named in the record; activity change, % (test concentration not listed); hit rate 0.56% among 360,000; in the data active = activity change below about -65%; inconclusive = about -30% to -65%; inactive = above about -30%; also: % is scaled to controls: 0 for no effect and ±100 for the full control effect; compound concentration not given in the record
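AlphaScreen with GST-Six1 and His-Eya2 (5X mix: 250 nM and 500 nM), glutathione donor and nickel acceptor beads; buffer 50 mM Tris pH 8.0, 300 mM NaCl, 1 mM TCEP; 1 h at 37 C in the dark.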
Starred values were filed as active, the others as inactive; [ ] = dose if it differs, or a comment. The order is random. About 1% of those tested had a hit in this group.

`CCn1cc(C(=O)O)c(=O)c2cnc(N3CCN(C(=S)Nc4ccccc4C(F)(F)F)CC3)nc21` gave PINK1 modulator -0.3%, D2 ag -1.3, TRPML1 inh -4, TRPML1 agonist 0.2, CtBP-E1A blk -9 and Six1-Eya2 inh -19.
`CC(=O)NCc1ccc(S(=O)(=O)N/N=C/c2ccccc2)cc1` gave PINK1 modulator 1.4%, D2 ag -3.3, TRPML1 inh 8, TRPML1 agonist 1.3, CtBP-E1A blk 19 and Six1-Eya2 inh 9.
Screening O=C(Nc1nc2ccccc2s1)c1ccc([N+](=O)[O-])o1 returned PINK1 modulator 0.4%, D2 ag 10, TRPML1 inh 13, TRPML1 agonist 3.3 and Six1-Eya2 inh -4.
For Cc1ccc(S(=O)(=O)NC(=O)NCc2ccccn2)cc1 the results were D2 ag 0.4, TRPML1 inh -6, TRPML1 agonist -0.2, CtBP-E1A blk -5 and Six1-Eya2 inh -15.
For COc1ccc(O)c(/C=N/NC(=O)c2ccc(CSc3nc(C)cc(C)n3)cc2)c1 the results were PINK1 modulator 13%, D2 ag 0.6, TRPML1 inh 16, TRPML1 agonist 2.2, CtBP-E1A blk inconclusive and Six1-Eya2 inh inconclusive.
`Cc1nc2ccccn2c(=O)c1NC(=O)c1cccc(F)c1` gave PINK1 modulator 0.6%, TRPML1 inh -16 and TRPML1 agonist -0.2.
Screening N#Cc1ccc(Cl)cc1NC(=O)COC(=O)c1ccc(S(=O)(=O)N2CCCC2)cc1 returned PINK1 modulator 1.7%, D2 ag -2.2, TRPML1 inh -23, TRPML1 agonist -0.7, CtBP-E1A blk 5 and Six1-Eya2 inh 6.
`O=C(c1ccc2c(=O)n3c(nc2c1)CCCCC3)N1CCN(c2ccc(F)cc2)CC1` gave PINK1 modulator 7.1%, D2 ag -1.1, TRPML1 inh 24, TRPML1 agonist 2.6, CtBP-E1A blk -13 and Six1-Eya2 inh -14.
O=C(NN=C1C2CC3CC1CC(Cl)(C3)C2)c1cccs1 was read as PINK1 modulator 0.2%, D2 ag -0.2, TRPML1 inh 13, TRPML1 agonist 1.1, CtBP-E1A blk 7 and Six1-Eya2 inh -5.
CCCCN(C)Cc1cc(=O)oc2ccc3ccccc3c12 was read as PINK1 modulator 0.8%, D2 ag -6.1, CtBP-E1A blk 7 and Six1-Eya2 inh 17.
For O=C(/C=C/c1c[nH]c2ccccc12)c1ccccc1 the results were PINK1 modulator -1.4%, D2 ag 3.3, TRPML1 inh -9, TRPML1 agonist 8.2, CtBP-E1A blk 7 and Six1-Eya2 inh 1.
For CCNC(=O)c1ccc2nc(CCc3ccccc3)oc2c1 the results were PINK1 modulator -1.5%, TRPML1 inh inconclusive and TRPML1 agonist 1.6.
Screening Cc1ccccc1NC(=O)c1cnn(-c2ccccc2)c1NC(=O)c1ccco1 returned D2 ag -1.9, TRPML1 inh 26, TRPML1 agonist -0.3, CtBP-E1A blk 8 and Six1-Eya2 inh -1.
`CC[C@]12c3[nH]c4cc(-c5ccco5)ccc4c3CCN1C(=O)[C@@H](CC(=O)NCCCn1ccnc1)C[C@@H]2C(=O)N1CCN(C(=O)c2ccco2)CC1` gave PINK1 modulator -0.3%, D2 ag -1.1, TRPML1 inh 8, TRPML1 agonist -0.3, CtBP-E1A blk -15 and Six1-Eya2 inh -9.
Screening O=C(NNC(=O)c1ccc2ccccc2c1)Nc1ccc(F)cc1 returned PINK1 modulator -0.8%, D2 ag 0.0, TRPML1 inh -3, TRPML1 agonist -0.3, CtBP-E1A blk 5 and Six1-Eya2 inh 7.
Cc1nn(-c2ccccc2)c(C)c1/C=N/n1cnnc1 was read as PINK1 modulator -1.3%, D2 ag -5.3, TRPML1 inh 20, TRPML1 agonist 0.1, CtBP-E1A blk -7 and Six1-Eya2 inh 5.
Screening COC(=O)c1cc2sc(Cl)cc2n1Cc1nc(-c2ccc(OC)cc2)oc1C returned PINK1 modulator 1.5%, TRPML1 inh -10 and TRPML1 agonist 0.0.
For CN(CC(=O)O)S(=O)(=O)c1ccc2c(c1)NC(=O)CC(=O)N2 the results were PINK1 modulator 1.2%, D2 ag -1.1, TRPML1 inh 13, TRPML1 agonist -0.2, CtBP-E1A blk 2 and Six1-Eya2 inh -1.
Screening CCc1ccc2c(c1)NC(c1ccc(F)cc1)=NC(c1ccncc1)=N2 returned PINK1 modulator -2.1%, TRPML1 inh 4 and TRPML1 agonist -1.1.
`Cc1ccc(Nc2nnc(SCC(=O)c3ccc(O)cc3O)s2)cc1` gave PINK1 modulator -2.2%, D2 ag 0.0, TRPML1 inh -3, TRPML1 agonist 2.2, CtBP-E1A blk inconclusive and Six1-Eya2 inh -12.
Screening O=C(N=Nc1c(O)[nH]c2ccccc12)Nc1ccccc1 returned PINK1 modulator 1.0%, D2 ag -5.4, TRPML1 inh -11, TRPML1 agonist 0.6, CtBP-E1A blk 11 and Six1-Eya2 inh -25.
Screening COc1ccccc1N1CCN(CCCCNC(=O)c2ccc3ccccc3c2)CC1 returned PINK1 modulator 1.2%, TRPML1 inh 11, TRPML1 agonist 0.4, CtBP-E1A blk -18 and Six1-Eya2 inh -17.
`Fc1ccc(-c2ccc(CNCCSc3nnnn3-c3ccccc3)o2)cc1` gave PINK1 modulator -0.7%, TRPML1 inh 0 and TRPML1 agonist 2.4.
`O=[N+]([O-])c1ccc(-c2nn(-c3ccccc3)cc2/C=N/n2c(-c3ccncc3)n[nH]c2=S)cc1` gave PINK1 modulator 6.6%, D2 ag 2.4, TRPML1 inh -5, TRPML1 agonist 0.1, CtBP-E1A blk 5 and Six1-Eya2 inh -1.
Screening C=CCn1c(CSCc2ccc(Cl)cc2Cl)nnc1SCC(=O)Nc1ccc(C(=O)O)cc1 returned PINK1 modulator 0.3%, D2 ag -1.7, TRPML1 inh -1, TRPML1 agonist 0.5, CtBP-E1A blk -7 and Six1-Eya2 inh -10.
For Cc1ccc(CNC(=O)CSCc2cccc(F)c2)cc1 the results were PINK1 modulator 1.9%, D2 ag -1.9, TRPML1 inh -10, TRPML1 agonist -0.4, CtBP-E1A blk 7 and Six1-Eya2 inh -16.
For CC(Oc1ccccc1)C(=O)Nc1nc2c(s1)C(=O)CC(C)(C)C2 (stereo not drawn) the results were PINK1 modulator 2.5%, D2 ag 1.8, TRPML1 inh -6, TRPML1 agonist 2.5, CtBP-E1A blk 6 and Six1-Eya2 inh -1.
CCc1nnc(NC(=O)CCC(=O)N2CCN(c3cc(C)ccc3C)CC2)s1 was read as PINK1 modulator 0.7%, D2 ag -3.4, TRPML1 inh -13, TRPML1 agonist 1.7, CtBP-E1A blk 1 and Six1-Eya2 inh 2.
Screening COc1cccc(/C=N/NC(=O)c2c(-c3ccccc3)noc2C)c1 returned PINK1 modulator -0.6%, D2 ag -3.7, TRPML1 inh -2, TRPML1 agonist 0.5, CtBP-E1A blk 4 and Six1-Eya2 inh -5.
For COc1cc(OC)cc(-c2nc3nc(C)c(CCC(=O)O)c(C)n3n2)c1 the results were PINK1 modulator 0.4%, D2 ag -0.3, TRPML1 inh 2, TRPML1 agonist -0.2, CtBP-E1A blk -3 and Six1-Eya2 inh -3.
For Cc1ccc(C)c(NCCC#N)c1 the results were PINK1 modulator 3.7%, D2 ag 1.0, TRPML1 inh 1, TRPML1 agonist -0.6, CtBP-E1A blk 19 and Six1-Eya2 inh -8.
`CC1(C)CC(=O)c2cnc(N3CCc4ccccc4C3)nc2C1` gave PINK1 modulator -5.0%[38.3 µM], D2 ag 0.7, TRPML1 inh 13, TRPML1 agonist -0.2, CtBP-E1A blk 24 and Six1-Eya2 inh 1.
For Cc1cc(F)ccc1NC(=O)Cn1c(=O)ccc2cc(S(=O)(=O)N3CCC(C)CC3)ccc21 the results were PINK1 modulator 0.0%, TRPML1 inh 13 and TRPML1 agonist -0.7.
C=CCn1c(CSc2ccc(C)cc2)n[nH]c1=S was read as PINK1 modulator 0.0%, D2 ag 4.7, TRPML1 inh 7, TRPML1 agonist 1.0 and Six1-Eya2 inh -1.
Screening C=Cc1ccc(C2=CC(=O)C[C@H](c3ccc(OC)cc3)C2)cc1 returned PINK1 modulator -1.4%, D2 ag 3.1, TRPML1 inh 8, TRPML1 agonist 1.7, CtBP-E1A blk -21 and Six1-Eya2 inh 6.
`COc1cc2c(c(OC)c1OC)C(=O)CO2` gave PINK1 modulator -0.6%, D2 ag -4.6, TRPML1 inh -11, TRPML1 agonist 0.1, CtBP-E1A blk 8 and Six1-Eya2 inh -1.
Screening CCOC(=O)Cn1c2c(c(=N)c3ccccc31)CCC2 returned PINK1 modulator 14%, D2 ag -3.2, TRPML1 inh -5, TRPML1 agonist -1.3, CtBP-E1A blk -1 and Six1-Eya2 inh -9.
COc1cc(OC)nc(C(NC(=O)C2CCN(Cc3ccc(Oc4ccccc4)cc3)CC2)c2ccc(F)cc2)n1 (stereo not drawn) was read as PINK1 modulator 6.3%, D2 ag -9.3, TRPML1 agonist -0.4, CtBP-E1A blk -12 and Six1-Eya2 inh -14.
CCCCn1c(CN2CCN(c3cccc(Cl)c3)CC2)nc2c1c(=O)[nH]c(=O)n2C was read as PINK1 modulator 2.8%[38.3 µM], D2 ag -3.4, TRPML1 inh -8, TRPML1 agonist 0.0, CtBP-E1A blk -12 and Six1-Eya2 inh -15.
CCOC(=O)c1ccc(NC(=O)N2CC(C)OC(C)C2)cc1 (stereo not drawn) was read as PINK1 modulator 7.0%[38.3 µM], D2 ag -0.4, TRPML1 inh 4, TRPML1 agonist 2.1, CtBP-E1A blk 9 and Six1-Eya2 inh 2.

Five records drawn at random from those above:
CCOC(=O)c1ccc(NC(=O)N2CC(C)OC(C)C2)cc1 (stereo not drawn) was read as PINK1 modulator 7.0%[38.3 µM], D2 ag -0.4, TRPML1 inh 4, TRPML1 agonist 2.1, CtBP-E1A blk 9 and Six1-Eya2 inh 2.
Screening C=Cc1ccc(C2=CC(=O)C[C@H](c3ccc(OC)cc3)C2)cc1 returned PINK1 modulator -1.4%, D2 ag 3.1, TRPML1 inh 8, TRPML1 agonist 1.7, CtBP-E1A blk -21 and Six1-Eya2 inh 6.
`COc1cc2c(c(OC)c1OC)C(=O)CO2` gave PINK1 modulator -0.6%, D2 ag -4.6, TRPML1 inh -11, TRPML1 agonist 0.1, CtBP-E1A blk 8 and Six1-Eya2 inh -1.
C=CCn1c(CSc2ccc(C)cc2)n[nH]c1=S was read as PINK1 modulator 0.0%, D2 ag 4.7, TRPML1 inh 7, TRPML1 agonist 1.0 and Six1-Eya2 inh -1.
CCc1nnc(NC(=O)CCC(=O)N2CCN(c3cc(C)ccc3C)CC2)s1 was read as PINK1 modulator 0.7%, D2 ag -3.4, TRPML1 inh -13, TRPML1 agonist 1.7, CtBP-E1A blk 1 and Six1-Eya2 inh 2.
